# VACV Venus inh = qHTS for Stage-Specific Inhibitors of Vaccinia Orthopoxvirus: Venus Reporter Primary qHTS; Vaccinia virus Venus reporter expression, fluorescence; Potency, µM (highest dose often 36.5 µM), for the others: at the highest dose activity change, negative = inhibition, most hits filed as inhibitors; 0.46% of 330,000 active; active means well fitted inhibition curve with a large enough effect; inconclusive means small, poorly fitted or top-dose-only effect; inactive means no such curve, though single readings can be large or run the other way; tested in A549 cells; further: nearly all actives have a fitted effect of over 30% in size; inactives centre near -10
# VACV mCherry inh = qHTS for Stage-Specific Inhibitors of Vaccinia Orthopoxvirus: mCherry Reporter Primary qHTS; 0.63% of 310,000 active; Vaccinia virus mCherry reporter infection, fluorescence; about a quarter of the inactives have no number; Potency, µM (highest dose often 36.5 µM), for the others: at the highest dose activity change, negative = inhibition, hits mostly inhibitors; AID 720579, 2013; active = well fitted inhibition curve with a large enough effect; inconclusive = small, poorly fitted or top-dose-only effect; inactive = no such curve, though single readings can be large or run the other way; tested in A549 cells; further: nearly all actives have a fitted effect of over 35% in size; inactives centre near -10
# The depositor's hits bear a star; i = inactive; ? = inconclusive; . = no result given; & = joins results of further samples; [ ] = dose if it differs, or a comment. On the % scale 0 is the no-effect control and ±100 the full control effect; potency means the concentration at half of the fitted maximal effect.
SMILES,VACV Venus inh,VACV mCherry inh
Cc1cc2nc(C(C)(C)C)c(Cc3ccccc3)n2c(C)c1Br,-3.7%,11.1%
Fc1ccc2cnc(-c3cccnc3)cc2c1,-11.0%,i
CCOC(=O)c1ccccc1NC(=O)Cn1c(=O)n(CCCC(=O)NCc2ccc3c(c2)OCO3)c(=O)c2ccccc21,-22.0%,-25.0%
CCN(CC)S(=O)(=O)c1ccc(C)c(NC(=O)COC(=O)CN2C(=O)NC(C)(C)C2=O)c1,-4.9%,i
CC(=O)Nc1cc2c(cc1[N+](=O)[O-])-c1ccc(F)cc1C2,6.3%,i
Cc1ccc(-n2c(O)c(/C=N/c3ncc(Br)cc3Br)c(=O)[nH]c2=O)cc1,2.6%,13.5%
CNc1c([N+](=O)[O-])cnn1-c1ccccc1F,-5.0%,i
CCn1c(C)c(C)c2cc(C(=O)NCCCN3CCCC3)ccc21,-6.3%[7.34 µM],-10.6%[7.34 µM]
CC(=O)Nc1ccccc1OCC(=O)N(Cc1ccccc1)C(C)C,-25.2%,-5.5%
Cc1ccc(NC(=O)Cn2c(=O)c3ccccc3n3nncc23)cc1,-1.5%,-1.0%
O=C(O)c1cccc(Nc2ncnc3c2cnn3-c2ccccc2)c1,-17.4%,.
CC1=C(/C=C/C(C)=C/C=C/C(C)=C/C=C/C=C(C)/C=C/C=C(C)/C=C/C2=C(C)C(=O)C(O)CC2(C)C)C(C)(C)CC(O)C1=O (centres undefined),-1.3%,-7.2%
O=C1CC(c2ccccc2)CC2=C1C(c1ccccn1)Nc1ccccc1N2 (centres undefined),-9.5%,-5.4%
Cc1cccnc1NC(=O)c1ccc(S(=O)(=O)N2CCCCCC2)cc1,-21.4%,-4.6%
COc1ccc(OC)c(/C=N/NC(=O)c2[nH]ncc2Br)c1,-16.3%,-15.0%
CCN1CCN(c2cc(C)c3cc(NC(=S)N(C)Cc4ccccc4)ccc3n2)CC1,-26.1%,?
CC(=O)NC(Cc1cccc(C)c1)C(=O)NC1CCN(S(=O)(=O)c2ccccc2)CC1 (centres undefined),5.2%,22.8%
COc1ccc(C2=NOC(c3nnc(-c4ccccc4)o3)C2)cc1 (centres undefined),-8.8%,i
S=C(NN=C(c1ccccc1)c1ccccn1)N(Cc1ccccn1)Cc1ccccn1,?,2.51µM*
Cc1ccc(CN2CC(C(=O)N(Cc3nnc(-c4ccccc4Cl)o3)C3CC3)CC2=O)cc1 (centres undefined),-15.1%,-2.8%
C=CCN1C(=O)NC(=O)/C(=C/c2ccoc2)C1=O,19.2%,-3.8%
CCCCC1=CC2=C(c3ccco3)C(=O)C(C)(OC(=O)c3ccc(OC)cc3)C(=O)C2=CN1C1CCCCC1 (centres undefined),-18.6%,-8.3%
COCCCNC(=O)c1cc(Sc2nnc(C)s2)nc2ccccc12,-7.7%,i
C=CCn1c(SCC(=O)N2CCCCC2)nnc1-c1ccncc1,-4.6%,2.5%
COc1ccccc1CNS(=O)(=O)c1ccc(-n2cccn2)cc1,-8.3%,-15.6%
COc1cc(/C=C(\C#N)C(=O)NCC2CCCO2)cc(OC)c1OC (centres undefined),2.2%,-6.3%
CCOc1cc(C(=O)N2CCC3(CC2)OCCO3)cc(OCC)c1OCC,-7.6%,-9.8%
CN1CCC2(O)OCCCC2C1 (centres undefined),-13.8%,i
CC(O)(COc1ccccc1)c1ccc2c(c1)CN(Cc1ccccn1)CCO2 (centres undefined),-4.6%,-8.6%
CCC(=O)Nc1cccc(-c2cn3ccsc3n2)c1,-18.8%,.
CCC(=O)N1CCc2cc(Br)cc(S(=O)(=O)N3CCCCC3CC)c21 (centres undefined),-7.0%,-12.1%
CS(=O)(=O)N1CCc2cc(C(=O)N3CCCCC3)ccc21,2.2%,.
CCOC(=O)N1CCN(C(=O)CSCC(=O)Nc2nc(-c3ccc(C)cc3)cs2)CC1,?,?
CC(=O)Nc1ccc(S(=O)(=O)NCC(C)NS(=O)(=O)c2ccc(NC(C)=O)cc2)cc1 (centres undefined),-8.8%,-9.1%
O=C(N/N=C/c1cn(CC(=O)N2CCOCC2)c2ccccc12)c1cccnc1,0.0%,i
Nc1ccc(S(=O)(=O)c2ccc(N)cc2)cc1,?,-23.8%&-29.5%
COc1ccc(CCNC(=O)CSc2nnc(-c3ccc(C)cc3)c(-c3ccc(C)cc3)n2)cc1OC,-13.6%,-19.4%
CC(/C=N/NC(=O)NC1CCCCC1)=C\c1ccccc1,-13.4%,-21.4%
COc1ccc(CCNC(=O)c2cnccn2)cc1,-11.2%,-18.2%
Cc1ccc(-c2cc3c(nn2)-c2ccccc2C3=O)cc1,3.2%,?
O=C(O)CP(=O)(c1ccccc1)c1ccccc1,-11.0%,.
Cc1ccc(NC2(C(F)(F)F)N=C(c3ccccc3)NC2=O)nc1 (centres undefined),-0.1%,-16.0%
CCCC(=O)Nc1ccc(C(=O)COC(=O)C2=COCCO2)cc1,-6.3%,-10.8%
Cc1ccc(C(=O)c2c3ccccc3[n+]([O-])n2CCC(N)=O)cc1,-12.9%,i
Cc1nc(C(=O)NCc2ccccc2)sc1C1(C)CC(c2cccnc2)=NO1 (centres undefined),-29.5%,?
Cc1ccc(NS(=O)(=O)c2ccc(C(=O)N3CCCCCCC3)cc2)cc1,-8.1%,i
Cc1c(N)cc[n+](CC(=O)c2ccccc2)c1C,-15.2%,-3.8%
CCC(C)C(NC(=O)c1ccccc1NC(=O)c1ccccc1)C(=O)O (centres undefined),-2.8%,-9.5%
Cc1onc(-c2ccccc2)c1CNC(=O)Nc1ccc(C(F)(F)F)cc1,-17.7%,-8.9%
O=C(c1ccc(Br)s1)N1CCN(c2ccccn2)CC1,-19.5%,-16.2%
CC(=O)c1ccc(NC(=O)c2ncn(-c3ccccc3)n2)cc1,-3.8%,-13.9%
CCOc1ccc(NC(=O)c2cccn(Cc3cccc(Cl)c3)c2=O)cc1,?,?
Cc1cc(-c2nnc(SCC(=O)Nc3ccccn3)o2)no1,-5.5%,-14.3%
COc1ccc(C2(C)NC(=O)N(CC(=O)Nc3ccc4[nH]c(=O)[nH]c4c3)C2=O)cc1 (centres undefined),-4.9%,-5.0%
COc1cc(CN2CCCC(CO)(Cc3ccccc3)C2)ccc1O (centres undefined),-13.9%,-15.2%
COc1cccc(S(=O)(=O)Nc2ccc3c(c2)[C@@H]2C[C@@H](CC(=O)NCc4ccc(Cl)cc4)O[C@@H](CO)[C@@H]2O3)c1,-19.2%,-22.7%
COc1cccc(CNc2nc3cc(-c4ccccc4CO)sc3c(=O)n2C)c1,-20.4%,-27.9%
CSC1=NSC2=NC(=O)/C(=C\c3cccs3)C(=N)N12,-17.4%,?
O=C(N=Nc1c(O)[nH]c2ccccc12)c1cc(-c2cccs2)[nH]n1,18.4%,i
COc1ccc(OC)c(S(=O)(=O)NCCS(=O)(=O)N2CCN(c3ccccc3F)CC2)c1,-17.3%,i
# Following part
SMILES,VACV Venus inh,VACV mCherry inh
Cc1cc(C2C(=O)NC(=O)C2=O)c(C)cc1Br (centres undefined),3.5%,-11.6%
CCC(=O)N(CCC(c1ccccc1)c1ccco1)Cc1cccs1 (centres undefined),-16.5%,-26.9%
O=c1[nH]c(=O)c2nc(-c3ccc(Cl)cc3)cnc2[nH]1,-28.9%,?
C1=Cc2ccccc2/C1=C\c1cc2c3c(c1)CCCN3CCC2,10.2%,26.0%
O=C(CSc1oc(-c2ccccc2)nc1S(=O)(=O)c1ccc(Br)cc1)c1ccccc1,-10.8%,-11.2%
CC(C)(C)n1nc2c(c1NC(=O)COc1ccc3ccccc3c1)CS(=O)C2 (centres undefined),-3.3%,-8.0%
CC1Cc2ccccc2N1C(=O)COC(=O)C1=COCCO1 (centres undefined),-6.8%,-12.6%
Cc1ccc2sc(NNC(=O)c3cc(=O)c4ccccc4o3)nc2c1C,-14.8%,?
NC(N)=NC(N)=Nc1cccc2ccccc12,-8.3%[7.34 µM],i[7.34 µM]
Cc1oc(C)c(C(=O)NCCCC(=O)O)c1C(=O)NCCCC(=O)O,-6.3%,.
CCN(Cc1ccccc1)S(=O)(=O)c1cc(C(=O)c2c(N)n(C)c(=O)n(C)c2=O)ccc1OC,-18.2%,i
Cc1ccc(-n2nnnc2SCCNS(=O)(=O)c2ccccc2)cc1C,-20.4%,-6.2%
Cc1cc(OCC(=O)N[C@@H](Cc2ccccc2)c2nc3ccccc3[nH]2)ccc1Cl,-10.2%,i
CC(C)c1ccc(NC(=O)Cc2ccc(NC(=O)N3CCCCc4ccccc43)cc2)cc1,?,-11.3%
CCc1ccc(/C=C2/SC(=S)N(CCCC(=O)Nc3ccccc3C(=O)O)C2=O)cc1,-2.8%,-25.2%
O=C(CSc1nc(C(F)(F)F)cc(=O)[nH]1)N1CCCC1,-5.9%,-1.6%
CC(=O)c1ccc(NS(=O)(=O)c2ccc(-c3cc(C)no3)s2)cc1,-6.4%,-20.1%
CCc1ccccc1NC(=O)CSc1nc(-c2cccc(Cl)c2)nc2c1Cc1c(CO)cnc(C)c1O2,-9.2%,-2.9%
Cc1ccc(S(=O)(=O)c2ccc(NN)cc2)cc1,-0.3%,-7.9%
COc1ccc2[nH]c3c(c2c1)CCN1C(=O)C(CC(=O)NCC24CC5CC(CC(C5)C2)C4)C[C@H](C(=O)N2CCOCC2)[C@@]31C (some centres undefined),?,?
COc1ccc(NC(=S)N2CCN(S(=O)(=O)c3ccccc3)CC2)cc1,-10.7%,i
COc1ccccc1NC(=O)COC(=O)c1cc(C)nc2ccccc12,-7.0%,i
COc1ccccc1CNC(=O)c1ccc(NS(=O)(=O)c2cccs2)cc1,-4.7%,-9.4%
c1ccc(-n2nnnc2Oc2cccc3cccnc23)cc1,-9.0%,-18.5%
COC(=O)C1=C(C(=O)OC)[C@@H]2N(Cc3ccccc3)c3ccccc3[C@@]23C[C@@H](CO)N(C(=O)NC2CCCC2)C3=N1,-17.2%,i
CCOc1ccccc1C1N=C(c2ccc(OC)cc2)CC(c2ccccc2O)N1 (centres undefined),-21.2%,?
O=C(Nc1nnc(-c2ccco2)o1)c1cccc2ccccc12,-18.1%,i
Cc1cc(C)[n+](C2C3CC4CC(C3)CC2C4)o1 (centres undefined),0.3%,i
O=C(Cn1cccc1C(=O)c1ccccc1)NCc1ccc(Cl)cc1,-9.2%,-8.0%
CC(=O)N1CCc2cc(S(=O)(=O)NC(CC(C)C)C(=O)Nc3ccc4c(c3)OCCO4)ccc21 (centres undefined),-2.6%,i
COc1ccc(COC(=O)C2=C(C)NC(=O)NC2c2cccc(OC)c2OC)cc1 (centres undefined),-8.9%,i
COC(=O)C1=C(c2ccc(C(C)=O)cc2)C[C@@H]2CC[C@H]1N2C(=O)N1CCCC1,-8.6%,-2.3%
CC(=O)N1CCN(C(=O)c2ccc(-n3c(C)ccc3C)cc2)CC1,-12.4%,i
COc1ccc(O)c(C(=O)c2cnn(-c3ccc(Cl)cc3)c2)c1,-2.8%,0.4%
CCCCC1CCC(C(=O)OC(C)C(=O)Nc2ccc(NC(C)=O)cc2)CC1 (centres undefined),-8.7%,-3.3%
O=C(CN1C(=O)C2CC=CCC2C1=O)Nc1nnc(SCc2c(Cl)cccc2Cl)s1 (centres undefined),-12.7%,-21.4%
Cc1nc(CN2CCCCC2)c(O)c(=O)[nH]1,-8.0%,?
CC(C)CN1C(=O)NC(NS(=O)(=O)c2ccc(N)cc2)(C(F)(F)F)C1=O (centres undefined),-14.7%,-7.6%
C[C@H](O)C#Cc1cnc2c(c1)C(=O)N([C@H](C)CO)C[C@@H](C)[C@@H](CN(C)Cc1ccc(-c3ccccc3)cc1)O2,?,?
O=C(Nc1ccc(F)cc1F)C1CCCN1S(=O)(=O)c1cccc2nsnc12 (centres undefined),-5.0%,i
CCc1nnc(NC(=O)c2ccc(S(=O)(=O)N3CCCc4ccccc43)cc2)o1,-27.1%,-29.5%
O=C(NC1CCCCC1)C(c1ccncc1)n1c(=O)c(-c2ccccc2)nc2ccccc21 (centres undefined),-3.2%,9.0%
Cc1cc(NC(=O)c2ccc(C)s2)n(-c2nc3ccccc3[nH]2)n1,?,-11.2%
CCOC(=O)N1CCN(C2CCCN(C(=O)c3ccccc3N(C)C)C2)CC1 (centres undefined),-11.5%,-14.1%
O=C(COn1nnc2ccc(S(=O)(=O)N3CCOCC3)cc21)Nc1c(F)c(F)c(F)c(F)c1F,-17.0%,-8.4%
CC(OC(=O)Cc1n[nH]c(=O)c2ccccc12)C(=O)Nc1ccc(Cl)cn1 (centres undefined),-15.4%,-9.0%
OCn1ncn(-c2ccccc2)c1=S,-12.6%,.
